High-throughput results from PubChem.
Vaccinia stage = blocks a specific stage of Vaccinia orthopoxvirus infection; Vaccinia-infected cells, mCherry/Venus stage reporter fluorescence; active compounds read low; some inactives read as strong as hits; 89,000 compounds, 0.01% hits; AID 1053133; activity change (mCherry), % (test concentration not listed);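 active = mCherry past -33% and 40 or more points under the early reporter, replicates agreeing; inconclusive = past -33% without that gap or agreement; tested in A549 cells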;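 note: scaled between vehicle wells and reference inhibitor wells; 23 nL library stock went into each well; one replicate is shown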
Vaccinia stage Venus = second read-out of Vaccinia stage, no call of its own (marks repeat the call); activity change (Venus), %; measured here: Venus reporter, other viral stage;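 negative = less Venus signal; first of two replicates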
Active calls of the source: *; ? = inconclusive; . = not tested or not shown; & = joins results of further samples. An excerpt; count on the stated rates, not on these rows.

SMILES | Vaccinia stage | Vaccinia stage Venus
CNC[C@H]1Oc2ncc(-c3ccc(C#N)cc3)cc2C(=O)N([C@@H](C)CO)C[C@H]1C | 16 | 0
C[C@@H]1CCCCO[C@H](CN(C)C(=O)Nc2ccc3c(c2)OCO3)[C@H](C)CN([C@@H](C)CO)C(=O)c2cc(NS(=O)(=O)c3ccc(Cl)cc3)ccc2O1 | -19 | -10
COCC(=O)Nc1ccc2c(c1)OC[C@@H](C)N(C(=O)c1ccncc1)C[C@@H](C)[C@@H](OC)CN(C)C2=O | 14 | 8
O=C(C[C@@H]1C=C[C@@H](NC(=O)c2ccccc2)[C@@H](CO)O1)Nc1ccc(-c2ccccc2)cc1 | -14 | -14
C[C@H]1CN([C@@H](C)CO)C(=O)Cc2cc(NC(=O)Nc3cccc4ccccc34)ccc2O[C@@H]1CN(C)C(=O)Nc1cccc2ccccc12 | 12 | 8
C[C@H]1CN([C@@H](C)CO)C(=O)c2cc(C3=CCCCC3)cnc2O[C@@H]1CN(C)CC1CCCC1 | -19 | -15
C[C@H](CO)N1C[C@H](C)[C@H](CN(C)S(=O)(=O)c2ccccc2)OCCCC[C@H](C)Oc2ccc(NC(=O)Nc3ccc(C(F)(F)F)cc3)cc2C1=O | -6 | -7
C[C@@H]1CN([C@H](C)CO)C(=O)c2cccc(NC(=O)C3CC3)c2O[C@@H]1CN(C)Cc1ccncc1 | 21 | 5
O=C(NC1CCCCC1)[C@H]1[C@H](CO)[C@H]2Cn3c(cccc3=O)[C@@H]1N2CC1CCCC1 | 14 | 8
O=C(Nc1ccc(Cl)c(Cl)c1)N[C@@H]1CC[C@@H](CCn2cc(C3CCCCC3)nn2)O[C@@H]1CO | 2 | 15
O=C(Nc1ccc(F)cc1)N1[C@@H]2CNC[C@H]1C2c1ccc(-c2ccccc2)cc1 (stereo partly drawn) | -10&-9 | -9&-8
CC(C)NC(=O)N[C@@H]1C=C[C@H](CC(=O)N2CCCCC2)O[C@@H]1CO | 14 | 15
O=C(C1CCC1)N1CC(=O)N2[C@H](CO)[C@@H](c3ccc(C#Cc4cccc(F)c4)cc3)[C@@H]2C1 | ? | .
CC(C)NC(=O)N(C)C[C@H]1Oc2ccc(NC(=O)Nc3cccc4ccccc34)cc2CC(=O)N([C@@H](C)CO)C[C@@H]1C | 0 | 9
COc1ccc(S(=O)(=O)N(C)C[C@@H]2OCCCC[C@H](C)Oc3ccc(NS(=O)(=O)c4ccc(Cl)cc4)cc3C(=O)N([C@H](C)CO)C[C@H]2C)cc1 | ? | .
C[C@H](CO)N1C[C@H](C)[C@@H](CN(C)S(=O)(=O)c2cccs2)OCCCC[C@H](C)Oc2ccc(NS(=O)(=O)c3cn(C)cn3)cc2C1=O | 4 | -1
CC(C)CC#Cc1cnc2c(c1)C(=O)N([C@@H](C)CO)C[C@@H](C)[C@H](CN(C)CC1CCOCC1)O2 | -5 | 3
O=C(NCC[C@H]1CC[C@H](NS(=O)(=O)Cc2ccccc2)[C@@H](CO)O1)C1CCOCC1 | -13 | -9
CN1CCN(C(=O)C[C@H]2CC[C@H]3[C@@H](COC[C@@H](O)CN3C(=O)C3CC3)O2)CC1 | 14 | 16
CO[C@@H]1CC[C@H]2CCOc3ccc(C#N)cc3C(=O)N(C)CCCC(=O)N(C)C[C@H]1O2 | 11 | 5
CS(=O)(=O)Nc1ccc2c(c1)[C@H]1C[C@@H](CC(=O)NCC(F)(F)F)O[C@H](CO)[C@H]1O2 | 2 | 0
O=C(c1cccc(F)c1)N1CC2(C1)[C@H](c1ccccc1)[C@H](CO)N2C(=O)C1CCCCC1 | 10 | 19
CCCNC(=O)Nc1ccc2c(c1)C(=O)N(C)[C@@H]1CC[C@H](CC(=O)OC)O[C@@H]1CO2 | -6 | 8
C[C@@H]1CN([C@@H](C)CO)C(=O)c2cc(C3=CCCCC3)cnc2O[C@@H]1CN(C)C(=O)Nc1cccc(F)c1 | -32 | -32
COc1ccc(NC(=O)N(C)C[C@@H]2Oc3c(NC(=O)C4CC4)cccc3C(=O)N([C@@H](C)CO)C[C@@H]2C)cc1 | 14 | 17
C[C@@H]1CN([C@H](C)CO)C(=O)Cc2cc(NC(=O)C3CCCCC3)ccc2O[C@@H]1CN(C)S(=O)(=O)c1ccccc1 | 3 | 3
COc1ccccc1CN1[C@H](CO)[C@H]2c3ccccc3N(C(=O)C3CCOCC3)C[C@H]21 | 15 | 15
C[C@@H]1CN([C@@H](C)CO)C(=O)c2cccc(NC(=O)Nc3ccc(C(F)(F)F)cc3)c2O[C@H]1CN(C)Cc1ccccc1 | -6 | -1
C[C@@H](NC(=O)C[C@@H]1C[C@@H]2c3cc(NC(=O)c4cccnc4)ccc3O[C@@H]2[C@@H](CO)O1)c1ccccc1 | -1 | 6
O=C(C[C@H]1CC[C@H](NC(=O)Nc2ccc(F)cc2)[C@@H](CO)O1)NCc1ccccn1 | 10 | 2
Cc1noc(C)c1NC(=O)Nc1ccc2c(c1)CC(=O)N([C@@H](C)CO)C[C@@H](C)[C@@H](CN(C)Cc1ccc(Cl)c(Cl)c1)O2 | -33 | -29
COC(=O)C[C@@H]1C=C[C@@H](NS(=O)(=O)c2ccccc2F)[C@H](CO)O1 | 5 | -1
C[C@H](CO)N1C[C@H](C)[C@@H](CN(C)C(=O)NC2CCCCC2)Oc2ncc(C#CCN(C)C)cc2C1=O | 10 | 4
C[C@@H]1CCCCO[C@H](CN(C)S(=O)(=O)c2ccc(Cl)cc2)[C@H](C)CN([C@@H](C)CO)C(=O)c2cc(NC(=O)Nc3ccccc3)ccc2O1 | -10 | 7
COCC(=O)N1[C@@H](CO)[C@@H](c2ccc(-c3cccc(OC)c3)cc2)C12CN(C(C)=O)C2 | 5 | 12
O=C(C[C@H]1C=C[C@@H](NC(=O)Nc2ccc3c(c2)OCO3)[C@H](CO)O1)NCc1ccccc1 | 9 | 14
O=C(c1ccccc1F)N1CC(=O)N2[C@H](CO)[C@H](c3ccc(-c4ccc(F)cc4)cc3)[C@@H]2C1 | 21 | -8
CN(C)CC#Cc1ccc([C@@H]2[C@@H](CO)N3CCCCN(C(=O)c4ccc5c(c4)OCO5)C[C@@H]23)cc1 | 13 | 0
C[C@@H]1CN([C@H](C)CO)C(=O)c2cc(NC(=O)Cn3cnnn3)ccc2O[C@H]1CN(C)Cc1ccc(Oc2ccccc2)cc1 | 5 | 3
C[C@@H]1CN([C@H](C)CO)C(=O)c2cc(-c3ccccc3)cnc2O[C@H]1CN(C)Cc1ccccn1 | 8 | 6

Arranged by length of the SMILES (smallest number first): nine of the compounds above.
SMILES | Vaccinia stage | Vaccinia stage Venus
COC(=O)C[C@@H]1C=C[C@@H](NS(=O)(=O)c2ccccc2F)[C@H](CO)O1 | 5 | -1
O=C(C[C@H]1CC[C@H](NC(=O)Nc2ccc(F)cc2)[C@@H](CO)O1)NCc1ccccn1 | 10 | 2
COCC(=O)N1[C@@H](CO)[C@@H](c2ccc(-c3cccc(OC)c3)cc2)C12CN(C(C)=O)C2 | 5 | 12
C[C@@H]1CN([C@H](C)CO)C(=O)c2cc(-c3ccccc3)cnc2O[C@H]1CN(C)Cc1ccccn1 | 8 | 6
O=C(c1ccccc1F)N1CC(=O)N2[C@H](CO)[C@H](c3ccc(-c4ccc(F)cc4)cc3)[C@@H]2C1 | 21 | -8
C[C@H](CO)N1C[C@H](C)[C@@H](CN(C)C(=O)NC2CCCCC2)Oc2ncc(C#CCN(C)C)cc2C1=O | 10 | 4
CN(C)CC#Cc1ccc([C@@H]2[C@@H](CO)N3CCCCN(C(=O)c4ccc5c(c4)OCO5)C[C@@H]23)cc1 | 13 | 0
C[C@@H]1CN([C@H](C)CO)C(=O)c2cc(NC(=O)Cn3cnnn3)ccc2O[C@H]1CN(C)Cc1ccc(Oc2ccccc2)cc1 | 5 | 3
C[C@@H]1CCCCO[C@H](CN(C)S(=O)(=O)c2ccc(Cl)cc2)[C@H](C)CN([C@@H](C)CO)C(=O)c2cc(NC(=O)Nc3ccccc3)ccc2O1 | -10 | 7

Additional entries follow.
SMILES | Vaccinia stage | Vaccinia stage Venus
C[C@@H]1CN([C@H](C)CO)C(=O)c2cccc(NS(=O)(=O)c3ccc(F)cc3)c2O[C@@H]1CN(C)C(=O)Nc1ccc(F)cc1 | 13 | 16
COc1ccc(S(=O)(=O)Nc2cccc3c2O[C@H](CN(C)Cc2ccc(Oc4ccccc4)cc2)[C@@H](C)CN([C@@H](C)CO)C3=O)cc1 | -26 | -16
Cc1ccc(S(=O)(=O)Nc2ccc3c(c2)C(=O)N([C@@H](C)CO)C[C@@H](C)[C@H](CN(C)C(=O)NC2CCCCC2)O3)cc1 | 21 | 5
Cc1noc(C)c1S(=O)(=O)N(C)C[C@H]1Oc2ccc(NS(=O)(=O)c3ccc(F)cc3)cc2CC(=O)N([C@H](C)CO)C[C@@H]1C | 12 | 7
CO[C@@H](CN(C)C(=O)c1cc(Cl)cc(Cl)c1)[C@H](C)CN(C(=O)Nc1ccc(F)cc1)[C@H](C)CO | 7 | 6
O=C(C[C@H]1CC[C@@H](NS(=O)(=O)c2ccc(F)cc2)[C@H](CO)O1)NC1CCCCC1 | -7 | -10
C[C@@H]1CN([C@H](C)CO)C(=O)c2cc(/C=C/c3ccccc3)cnc2O[C@H]1CN(C)S(=O)(=O)c1ccccc1 | -9 | -12
C[C@@H]1CN([C@@H](C)CO)C(=O)c2cc(-c3cccnc3)cnc2O[C@H]1CN(C)C(=O)C1CC1 | 14 | 6
C[C@H](CO)N1C[C@H](C)[C@H](CN(C)C(=O)NC2CCCCC2)Oc2ccc(NC(=O)CCC(F)(F)F)cc2CC1=O | -1 | -1
COCC(=O)N1CC(=O)N2[C@@H](CO)[C@H](c3ccc(C#CC(C)C)cc3)[C@@H]2C1 | 10 | 6
C[C@H]1CN([C@@H](C)CO)C(=O)Cc2cc(NC(=O)Nc3ccc4c(c3)OCO4)ccc2O[C@@H]1CN(C)Cc1ccc(Oc2ccccc2)cc1 | -29 | -19
CNC[C@H]1Oc2ccc(NS(=O)(=O)c3c(C)noc3C)cc2C(=O)N([C@@H](C)CO)C[C@H]1C | 35 | 16
C[C@H]1CN([C@@H](C)CO)C(=O)Cc2cc(NC(=O)Nc3cccc4ccccc34)ccc2O[C@@H]1CN(C)Cc1ccc(C(F)(F)F)cc1 | -14 | -3
C[C@@H]1CN([C@@H](C)CO)C(=O)c2cc(NC(=O)C3CCCCC3)ccc2O[C@@H](C)CCCCO[C@H]1CN(C)C(=O)Cc1ccccc1 | ? | .
CCNC(=O)C[C@@H]1C=C[C@H](NC(=O)NC2CCCCC2)[C@@H](CO)O1 | 3 | 0
C[C@@H]1CN([C@H](C)CO)S(=O)(=O)c2ccc(-c3cncnc3)cc2O[C@@H]1CN(C)C(=O)NC1CCCC1 | 11 | 5
Cc1ccc(-c2ccc3c(c2)O[C@@H](CN(C)S(C)(=O)=O)[C@H](C)CN([C@@H](C)CO)S3(=O)=O)cc1 | -32 | -23
C[C@@H](O)C#Cc1ccc([C@@H]2[C@@H](CO)N3CCCCN(C(=O)c4ccc(F)cc4)C[C@H]23)cc1 | 23 | 9
Cc1ccc(S(=O)(=O)N(C)C[C@@H]2OCCCC[C@@H](C)Oc3ccc(NC(=O)Nc4ccccc4)cc3C(=O)N([C@@H](C)CO)C[C@@H]2C)cc1 | 9 | 5
CN1C(=O)c2cc(NC(=O)c3ccccc3F)ccc2OC[C@@H]2O[C@@H](CC(=O)NCc3ccc4c(c3)OCO4)CC[C@@H]21 | -8 | -2
C/C=C/c1cnc2c(c1)C(=O)N([C@@H](C)CO)C[C@H](C)[C@@H](CN(C)C(=O)Cc1ccccn1)O2 | -1 | 6
CC(C)NC(=O)Nc1cccc2c1O[C@@H](CN(C)Cc1ccc(C(=O)O)cc1)[C@@H](C)CN([C@@H](C)CO)C2=O | 33 | 19
C[C@@H]1CCCCO[C@@H](CN(C)C(=O)Nc2ccccc2)[C@@H](C)CN([C@H](C)CO)C(=O)c2cc(NS(=O)(=O)c3cccs3)ccc2O1 | 9 | 2
O=C(Nc1ccccc1)N[C@@H]1CC[C@H](CCn2cc(-c3ccccc3F)nn2)O[C@H]1CO | 9 | 5
C[C@H]1CCCCO[C@@H](CN(C)Cc2ccncc2)[C@@H](C)CN([C@@H](C)CO)C(=O)c2cc(NC(=O)Nc3ccc4c(c3)OCO4)ccc2O1 | ? | .
N#Cc1cccc(-c2ccc(C3[C@@H]4CN(S(=O)(=O)c5ccccc5F)C[C@H]3N4)cc2)c1 (stereo partly drawn) | ? | 8
CCNC(=O)C[C@@H]1CC[C@@H]2[C@H](COc3ccc(NC(=O)Nc4c(C)noc4C)cc3C(=O)N2C)O1 | 5 | 8
C[C@@H]1CCCCO[C@@H](CN(C)CC2CCCCC2)[C@H](C)CN([C@H](C)CO)C(=O)c2cc(NS(=O)(=O)c3ccccc3)ccc2O1 | ? | .
C[C@@H]1CN([C@H](C)CO)C(=O)Cc2cc(NC(=O)CCCCCC(=O)Nc3ccccc3N)ccc2O[C@H]1CN(C)C(=O)Nc1ccccc1 | 3 | 7
C[C@H]1CN([C@@H](C)CO)C(=O)c2cc(NC(=O)CCC(F)(F)F)ccc2O[C@@H]1CN(C)C(=O)Nc1ccc2c(c1)OCO2 | 1 | 2
C[C@@H]1CN([C@@H](C)CO)C(=O)c2cc(NC(=O)Nc3ccccc3)ccc2O[C@H]1CN(C)Cc1ccccc1 | -23 | -12
COc1ccc(NC(=O)Nc2cccc3c2O[C@@H](CN(C)CC2CC2)[C@H](C)CN([C@H](C)CO)C3=O)cc1 | 12 | 5
C[C@H](CO)N1C[C@H](C)[C@@H](CN(C)Cc2ccc(-c3ccccc3)cc2)Oc2ccc(NC(=O)Nc3ccc4c(c3)OCO4)cc2C1=O | -22 | -13
CCCN1[C@@H]2Cn3c(ccc(C4=CCCC4)c3=O)[C@H]1[C@@H](C(=O)NCCOC)[C@@H]2CO | 0 | 5
C[C@H]1CN([C@@H](C)CO)C(=O)c2cccc(NC(=O)CCCCCC(=O)Nc3ccccc3N)c2O[C@@H]1CN(C)CC1CCCCC1 | ? | .
